Screening results (PubChem BioAssay)
SARS PLP yeast: qHTS of Yeast-based Assay for SARS-CoV PLP | S. cerevisiae expressing SARS-CoV PLpro, growth rescue; control for the full effect not named in the record | Potency, µM (highest dose often 32.9 µM), without a hit: top-dose activity, positive = growth rescue | actives 0.19% (n = 330,000) | AID 485353, 2010; also: 0% is about no effect; nearly all actives have a fitted effect of over 55% in size; growth read by luminescence after 48 h
NS1 function inh: qHTS Assay for Inhibitors of Influenza NS1 Protein Function; AID 2326, 2010; S. cerevisiae slowed by influenza A NS1, growth recovery by OD600; actives 0.4% (n = 270,000); Potency, µM (titrated, usually from 46.1 µM), for the others: top-dose activity, positive = more growth; also: actives are rising curves; nearly all actives have a fitted effect of over 50% in size
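OD600 was taken as the measure of yeast growth restored by compound in an NS1-expressing S. cerevisiae strain. Cells had been washed out of glucose medium and diluted 1:100 into galactose -URA medium, pH 6.0.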
RE007 growth inh: qHTS Assay for Inhibitors of the HIV-1 protein Vpr | S. pombe RE007 Vpr strain, BacTiter-Glo ATP luminescence, 24 h; control for the full effect not named in the record | Potency, µM (highest dose often 92.2 µM), for the others: at the highest dose activity change, negative = less growth | actives 0.21% (n = 360,000); active = well fitted falling curve with a large enough effect; inconclusive = small, poorly fitted or top-dose-only effect; inactive = no such curve, though single readings can be large or run the other way;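 also: % is scaled to controls: 0 for no effect and ±100 for the full control effect; nearly all actives have a fitted effect of over 50% in size; the assay follows cell death caused by Vpr and the record does not say whether a fall means rescue or toxicity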
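Fission yeast RE007 carrying one integrated HIV-1 vpr copy, seeded at OD 0.01 in PMG+AL medium with 23 nL pinned compound. Grown 24 h at 30 degrees; viability read by BacTiter-Glo luminescence after 5 min.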
MARV entry inh: qHTS for inhibitors of binding or entry into cells for Marburg Virus; Marburg virus pseudotyped entry inhibition, cell reporter; control for the full effect not named in the record; about a third of the inactives were read at about 46 µM; actives 1.8% (n = 300,000); Potency, µM (series often up to 37.8 µM), without a hit: top-dose activity change, negative = inhibition, hits mostly inhibitors; AID 540276, 2011; active = well fitted inhibition curve with a large enough effect; inconclusive = small, poorly fitted or top-dose-only effect, or effect the other way; inactive = flat fitted curve, though single readings scatter; tested in HEK293 cells; about a fifth of its hits are not listed in these tables; also: % is scaled to controls: 0 for no effect and ±100 for the full control effect; luciferase read-out
Cruzain Triton: qHTS Assay for Promiscuous and Specific Inhibitors of Cruzain (with detergent) | actives 0.43% (n = 200,000) | AID 1478, 2009 | Cruzipain (Trypanosoma cruzi), P25779 | Potency, µM, for the others: max response, negative = inhibition, hits mostly inhibitors | purified cruzain, Z-FR-AMC fluorescence, 0.01% Triton; active = well fitted curve in the direction sought with a large enough effect; inconclusive = small, poorly fitted or top-dose-only effect, or another doubt; inactive = no such curve, though single readings can be large; an effect the other way counts as inactive or inconclusive;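 also: plate controls were neutral wells for no effect and buffer without enzyme for full effect; nearly all actives have a fitted effect of over 40% in size; top concentration of the series not given in the record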
Target sequence (P25779 123-467 limits assumed): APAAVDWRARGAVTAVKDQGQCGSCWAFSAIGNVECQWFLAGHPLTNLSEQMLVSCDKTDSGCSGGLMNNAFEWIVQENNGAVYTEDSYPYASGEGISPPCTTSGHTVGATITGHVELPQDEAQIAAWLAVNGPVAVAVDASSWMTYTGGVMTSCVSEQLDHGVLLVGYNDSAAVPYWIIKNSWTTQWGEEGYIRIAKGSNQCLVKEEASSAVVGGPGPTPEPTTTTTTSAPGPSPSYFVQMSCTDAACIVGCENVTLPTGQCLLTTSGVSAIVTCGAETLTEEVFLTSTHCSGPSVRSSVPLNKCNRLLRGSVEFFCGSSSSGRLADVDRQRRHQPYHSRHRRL
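Cruzain (1.5 nM) preincubated 15 min at RT with compound in 100 mM sodium acetate pH 5.5, 5 mM DTT, 0.01% Triton X-100. Reaction started with 2 uM Z-FR-AMC; AMC fluorescence (ex 360/em 450 nm) change over 60 s gave rate.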
LASV entry inh: qHTS for Inhibitors of binding or entry into cells for Lassa Virus | Lassa virus pseudotype entry inhibition, cell reporter; control for the full effect not named in the record | Potency, µM (highest dose often 37.9 µM), for inactives: top-dose activity change, negative = inhibition, usual class: inhibitors | actives 1.2% (n = 300,000); active means well fitted inhibition curve with a large enough effect; inconclusive means small, poorly fitted or top-dose-only effect, or effect the other way; inactive means flat fitted curve, though single readings scatter; tested in HEK293 cells; also: % is scaled to controls: 0 for no effect and ±100 for the full control effect; nearly all actives have a fitted effect of over 50% in size; luciferase read-out
StopGo reporter: High Throughput Screening for Foot and Mouth Disease Virus Antivirals; human cells with a luciferase reporter of 2A StopGo recoding; control for the full effect not named in the record; Potency, µM (series often up to 57.9 µM), inactives show top-dose signal change, negative = less light; actives 1.2% (n = 410,000); active = well fitted falling curve with a large enough effect; inconclusive = small, poorly fitted or top-dose-only effect; inactive = no such curve, though single readings can be large or run the other way; tested in HEK293T cells; also: % is scaled to controls: 0 for no effect and ±100 for the full control effect; nearly all actives have a fitted effect of over 45% in size; luciferase light after 4 h
Cruzain inh noDet: qHTS Assay for Promiscuous and Specific Inhibitors of Cruzain (without detergent); Potency, µM, for inactives: max response, negative = inhibition, usual class: inhibitors; AID 1476, 2009; purified cruzain, Z-FR-AMC fluorescence, no detergent; Cruzipain (Trypanosoma cruzi), P25779; actives 2.3% (n = 200,000); active = well fitted curve in the direction sought with a large enough effect; inconclusive = small, poorly fitted or top-dose-only effect, or another doubt; inactive = no such curve, though single readings can be large; an effect the other way counts as inactive or inconclusive;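 also: plate controls were enzyme without inhibitor for no effect and buffer without enzyme for full effect; nearly all actives have a fitted effect of over 40% in size; top concentration of the series not given in the record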
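Purified cruzain at 1.5 nM, pre-incubated 15 min with compound at room temperature in 100 mM sodium acetate pH 5.5, 5 mM DTT, 0.00005% Triton X-100. Reaction started with 2 uM Z-FR-AMC; AMC fluorescence increase over 60 s gives rate.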
Starred values were filed as active, the others as inactive; ? = inconclusive; / = not tested or not shown; & = joins results of further samples; [ ] = another dose, or the depositor's remark. Unless noted, calls follow the shape of the dose curve; as a rule, active means well fitted rising curve with a large enough effect; inconclusive means small, poorly fitted or top-dose-only effect; inactive means no such curve, though single readings can be large or run the other way. Potency is read from the fitted curve at half-maximal effect. Compounds were not picked by outcome; any-hit rate near 4.7%.

nr | Structure | Cruzain inh noDet | RE007 growth inh | StopGo reporter | NS1 function inh
1 | CN(C)C(=O)CSc1nnc(-c2ccc(S(=O)(=O)N3CCCC3)cc2)n1C | / | 34% | -4% | 13%
2 | COc1ccc(N2CCN(C(=O)c3noc4c3CCCCC4)CC2)cc1 | -6% | / | 0% | /
3 | CCOC(=O)CSc1nnc(NC(=O)c2ccco2)s1 | / | -7% | 15% | 6%
4 | C=CCn1c(CNc2ccccc2)nnc1SCC(=O)N/N=C/c1ccccc1O | 1% | 12% | 8% | -15%
5 | O=C(NCCCN1C(=O)c2ccccc2C1=O)OCc1ccccc1 | / | -1% | -16% | /
6 | Cn1c(N)c(C(=O)COC(=O)CSc2ccc(Cl)cc2)c(=O)n(C)c1=O | 3% | 2% | 4% | -15%
7 | NC(=O)c1cc(Cl)ccc1OCC(=O)N1CCCc2ccccc21 | / | -4% | -3% | 4%
8 | Cn1c(=O)c2nncnc2n(C)c1=O | -9% | / | -16% | -1%
9 | O=C(CCC1N=C2c3ccccc3N=C(SCc3ccccc3Cl)N2C1=O)NCc1cccs1 (configuration not stated) | 6% | / | -22% | /
10 | COCCN(Cc1cc2cccc(C)c2[nH]c1=O)C(=O)c1ccccc1 | -8% | 0% | 13% | 5%
11 | COCCCNC(=O)CC(NS(=O)(=O)c1ccc(Cl)cc1)c1ccc(OC)cc1 (configuration not stated) | 9% | 7% | / | 4%
12 | COc1ccc(/C=C/C(=O)O/N=C(\N)c2cccnc2)cc1OC | / | 0% | 4% | -9%
13 | Cc1ccc(S(=O)(=O)Cn2nnnc2C(C(C)C)N2CCN(C(=O)c3ccco3)CC2)cc1 (configuration not stated) | / | 0% | 19% | -4%
14 | CCC1=Nc2cc(C(=O)NCCN3CCOCC3)ccc2Sc2ccc(Br)cc21 | / | 10% | -27% | -1%
15 | COC(=O)CCc1c(C)[nH]c(=S)[nH]c1=O | -8% | 15% | 7% | 0%

nr | MARV entry inh | LASV entry inh | Cruzain Triton | SARS PLP yeast
1 | 2%[46.1 µM] | -13%[46.1 µM] | / | 28%
2 | / | -1%[46.1 µM] | -4.9% | /
3 | / | / | / | 16%
4 | ? | -16% | -5.3% | 16%
5 | -7% | -1% | / | /
6 | 2% | 0% | -7.4% | 7%
7 | -19% | 0% | / | 1%
8 | 1%&8% | 8%&9% | 3.9% | 13%
9 | / | 22%[46.1 µM] | 2.4% | /
10 | 1% | 12% | 2.2% | -4%
11 | 23% | 8% | 1.3% | 3%
12 | 0% | / | / | -2%
13 | 3% | -21% | / | /
14 | / | / | / | 0%
15 | 22%&22% | -5% | 3.7% | 7%

Remaining list, next part
nr | Structure | Cruzain inh noDet | RE007 growth inh | StopGo reporter | NS1 function inh
16 | COc1ccc(OC)c(N=Nc2c(O)c3ccccc3[nH]c2=O)c1 | / | -21% | ? | /
17 | Cc1ccc(C(=O)CSc2nsc(C)c2C#N)cc1 | 1% | -15% | 9% | 9%
18 | Cc1ncc(S(=O)(=O)c2ccc(Cl)cc2)c(-c2ccccc2)n1 | 5% | -12% | ? | 2%
19 | COc1ccc(C2CC(c3cccs3)=NN2c2nc(C)c(C(C)=O)s2)cc1OC (configuration not stated) | / | -5% | -7% | /
20 | Cc1ccc(OCc2nnc(SCC(=O)Nc3ncc(C)s3)o2)cc1 | / | 3% | 31%[activator] | 8%
21 | Cc1cc(C)c(S(=O)(=O)/N=C2/C=C(Sc3ncn[nH]3)C(=O)c3ccccc32)cc1C | ? | ? | ? | /
22 | COc1cc(-c2nnc(-c3ccco3)o2)ccc1OCc1ccccc1 | ? | -9% | 18% | -56%
23 | C/C(=N\Nc1ccccc1C)c1cccnc1 | / | -5% | 44%[activator] | -6%
24 | COc1ccc(-c2nn(CCC#N)cc2/C=N/O)cc1OC | / | 8% | -8% | /
25 | CCNS(=O)(=O)c1ccc(CCC(=O)NCc2ccc(C)cc2)cc1 | / | 2% | 9% | 2%
26 | Cc1cc(C)c(NC(=O)C(=O)NCC(c2cccnc2)N2CCN(c3ccccc3F)CC2)c(C)c1 (configuration not stated) | -10% | / | ? | /
27 | COc1ccc(C(=O)Nc2ccccc2N2CCOCC2)cc1[N+](=O)[O-] | -1% | / | -29% | -4%
28 | O=C(CCN1CCCCCC1)Nc1ccccc1F | / | 3% | -16% | /
29 | CSCCC(NC(=O)c1ccoc1C)C(=O)O (configuration not stated) | -12% | -13% | / | 7%
30 | Cc1ccc(CNC(=O)CCc2ccc(S(=O)(=O)NC3CCCCC3)cc2)cc1 | -8% | 9% | 1% | -28%

nr | MARV entry inh | LASV entry inh | Cruzain Triton | SARS PLP yeast
16 | ? | -25%[46.1 µM] | / | /
17 | 0% | ? | -11% | -8%
18 | -4% | -16% | 4.6% | -4%
19 | ? | ? | / | -5%
20 | 10% | 18% | / | 0%
21 | 1.6µM* | 13µM* | -12% | -65%
22 | -15% | -15% | 1.0% | -62%
23 | -4% | 13% | / | 1%
24 | 8%[46.1 µM] | 1% | / | 1%
25 | -1%[46.1 µM] | ? | / | 0%
26 | / | -18%[46.1 µM] | -4.3% | /
27 | -28% | ? | -3.5% | 12%
28 | 0% | -3% | / | /
29 | 3% | 0% | 3.0% | 10%
30 | 24% | 1% | -7.6% | -3%

Some values from above.
Entry of `Cc1cc(C)c(NC(=O)C(=O)NCC(c2cccnc2)N2CCN(c3ccccc3F)CC2)c(C)c1` (configuration not stated) under Cruzain Triton: -4.3%
Entry of `COc1ccc(C2CC(c3cccs3)=NN2c2nc(C)c(C(C)=O)s2)cc1OC` (configuration not stated) under RE007 growth inh: -5%
Entry of `COc1ccc(-c2nn(CCC#N)cc2/C=N/O)cc1OC` under MARV entry inh: 8%[46.1 µM]

Next section.
nr | Structure | Cruzain inh noDet | RE007 growth inh | StopGo reporter | NS1 function inh
31 | O=C(CCNC(=O)c1ccc(Cl)cc1)Nc1ncccc1O | / | 12% | 2% | 6%
32 | O=C(Nc1ccccc1)c1ccc(F)c(S(=O)(=O)N2CCOCC2)c1 | -5% | -10% | -4% | 0%
33 | CC1CCN(S(=O)(=O)c2ccc3c(ccn3CCC(=O)N3CCCCC3)c2)CC1 | / | 12% | -13% | -9%
34 | COc1ccccc1/C=C(\NC(=O)c1ccc(OC)c(OC)c1)C(=O)Nc1cc([N+](=O)[O-])ccc1C | ? | 16% | -14% | 22%

nr | MARV entry inh | LASV entry inh | Cruzain Triton | SARS PLP yeast
31 | 1%[46.1 µM] | 19%[46.1 µM] | / | -8%
32 | 2% | -21% | -2.4% | -5%
33 | / | / | / | 0%
34 | 6% | -3% | -1.5% | 16%

3 compounds drawn at random from those above, as already listed:
nr | Structure | Cruzain inh noDet | RE007 growth inh | StopGo reporter | NS1 function inh
32 | O=C(Nc1ccccc1)c1ccc(F)c(S(=O)(=O)N2CCOCC2)c1 | -5% | -10% | -4% | 0%
34 | COc1ccccc1/C=C(\NC(=O)c1ccc(OC)c(OC)c1)C(=O)Nc1cc([N+](=O)[O-])ccc1C | ? | 16% | -14% | 22%
33 | CC1CCN(S(=O)(=O)c2ccc3c(ccn3CCC(=O)N3CCCCC3)c2)CC1 | / | 12% | -13% | -9%

nr | MARV entry inh | LASV entry inh | Cruzain Triton | SARS PLP yeast
32 | 2% | -21% | -2.4% | -5%
34 | 6% | -3% | -1.5% | 16%
33 | / | / | / | 0%
